# VDR inh: vitamin D3 receptor (human) inhibition; P11473; AID 504847; Potency, µM, without a hit: max response, negative = inhibition, hits mostly inhibitors; 0.93% of 400,000 active; VDR-SRC2-3 peptide fluorescence polarization, 2 h; active = well fitted inhibition curve with a large enough effect; inconclusive = small, poorly fitted or top-dose-only effect, or another doubt; inactive = no such curve, though single readings can be large or run the other way; note: series mostly up to about 120 µM
# Target sequence (P11473 whole entry, looked up): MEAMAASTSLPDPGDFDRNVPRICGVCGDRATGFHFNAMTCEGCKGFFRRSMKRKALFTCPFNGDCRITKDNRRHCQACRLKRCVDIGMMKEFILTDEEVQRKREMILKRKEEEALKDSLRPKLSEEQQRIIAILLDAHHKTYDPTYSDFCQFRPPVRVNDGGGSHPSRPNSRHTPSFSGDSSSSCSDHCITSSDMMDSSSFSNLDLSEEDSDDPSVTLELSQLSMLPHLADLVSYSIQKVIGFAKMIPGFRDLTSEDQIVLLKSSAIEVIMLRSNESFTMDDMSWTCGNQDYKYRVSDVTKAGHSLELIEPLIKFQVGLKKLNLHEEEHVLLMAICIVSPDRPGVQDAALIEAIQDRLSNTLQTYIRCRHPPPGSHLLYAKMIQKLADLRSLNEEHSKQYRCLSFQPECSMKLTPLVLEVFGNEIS
#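 Reagent solutions, kept cold and dark, are dispensed first; compounds are then pinned in at 23 nl, plates briefly spun, and incubated 2 h at ambient temperature. Inhibition of VDR–SRC2-3 peptide binding is read by fluorescence polarization.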
# * marks the source's active call; other numbers are inactive results; ? = inconclusive; & = joins results of further samples. % is set by controls: 0 for no effect and ±100 for the full control effect; potency is the fitted concentration of half-maximal effect. The list is partial. The share of hits here may be higher or lower than overall.
SMILES,VDR inh
O=C(Nc1cc(Br)ccc1O)c1cc(-c2ccco2)on1,-8%
Cc1onc(-c2c(Cl)cccc2Cl)c1C(=O)NC(=S)Nc1sc2c(c1C(N)=O)CCC(C)C2 (centres undefined),-19%
CCOCCCNC(=O)c1ccc2c(c1)ncn2-c1ccc(CC)cc1,?
Cc1ccc(C(=O)O)cc1NC(=O)Nc1cccc2ccccc12,0%
COc1cccc(CNC(=O)CCS(=O)(=O)c2ccc3c(c2)oc(=O)n3C)c1,13%&-3%
CN(C)c1ccc(Nc2nc(-c3cccnc3)cs2)cc1,-9%
O=C(/C=C/c1ccccc1)Nc1cccc(C(=O)N2CCCC2)c1,-11%
CCCCCC(=O)Nc1c(-c2ccc(OC)cc2)c(=O)c2ccccc2n1C,-9%
O=[N+]([O-])c1cc(-c2nc(-c3ccncc3)no2)cc([N+](=O)[O-])c1,-10%
CC1=CC(C)(C)NC(=S)N1c1ccc(Cl)cc1,7%

# Molecules above containing a halogen:
SMILES,VDR inh
O=C(Nc1cc(Br)ccc1O)c1cc(-c2ccco2)on1,-8%
Cc1onc(-c2c(Cl)cccc2Cl)c1C(=O)NC(=S)Nc1sc2c(c1C(N)=O)CCC(C)C2 (centres undefined),-19%
CC1=CC(C)(C)NC(=S)N1c1ccc(Cl)cc1,7%

# Additional records follow:
SMILES,VDR inh
COc1cc(OC)c(OC)cc1/C=C/c1nc2cc3ccccc3cc2c(=O)n1-c1ccc(F)cc1F,-1%
O=C(O)c1ccc(CSc2nnc(-c3ccco3)o2)cc1,15%
CCOc1ccc(/C=N/NC(=O)c2nnn(-c3nonc3N)c2-c2cccs2)cc1,-15%
COc1cccc(OC)c1C(=O)NNC(=O)c1cccnc1,-1%
Cc1ccc2nc(Nc3ccccc3)c(/C=N/O)c(=O)n2c1,3%
CSc1ccc(S(=O)(=O)N(C)Cc2ccccc2)cc1,-14%
c1cn(CC2(Cn3ccnc3)COC2)cn1,-7%
CCN(CC)C(=O)Cn1cc(C(=O)C(=O)NCc2cccs2)c2ccccc21,-7%
Cc1cc(Cl)ccc1OCC(=O)N1CC(C)CC(C)C1 (centres undefined),-2%
O=C(NC(=S)NC1CCS(=O)(=O)C1)c1cccs1 (centres undefined),?
CCOc1ccc(CCNC(=O)c2sc3nc4n(c(=O)c3c2C)CCCC4)cc1,11%
CSc1ccccc1OCc1cc(C(=O)N2CCN(c3ccccc3)CC2C)no1 (centres undefined),-14%
COc1ccc(CCC(=O)NC(C)c2ccccc2)cc1OC (centres undefined),-5%
COc1ccc(CCNC(=O)c2ccc(Cn3c(=O)c4ccccc4n(Cc4ccc(F)cc4Cl)c3=O)cc2)cc1OC,-6%
C=C1CCN([C@@H](CC(C)C)C(=O)NCc2ccc(Cl)c(Cl)c2)S(=O)(=O)c2ccccc21,-20%
Cc1nc2ccc(C(=O)N3CCSCC3)cc2s1,-7%
CC(C)c1ccc2c(c1)c(SC(C)(C)C)c(CC(C)(C)C(=O)O)n2Cc1ccc(Cl)cc1,?
Cc1c(NC(=O)NCc2ccccc2)c(=O)n(-c2ccccc2)n1C,0%
CCC/C=C1/CCCOC(C(=O)NCc2ccc(C)o2)(C(F)(F)F)C1 (centres undefined),50µM*
CN(Cc1ccccc1)C1CCN(Cc2ccccc2[N+](=O)[O-])CC1,2%
COc1cc(OC)c(-c2c3cc(O)c(=O)cc-3oc3cc(O)c(O)cc23)cc1OC,-15%
CC(Sc1nc(=O)cc(N)n1CCc1ccccc1)C(=O)Nc1ccc(Cl)cc1 (centres undefined),-3%
O=C(c1ccc(-c2nc3ccccc3s2)s1)N1CCOCC1,-6%
COC(OC)c1ccc(C#N)c(SCc2ccccc2)n1,-16%
O=C(COc1ccc(Cl)cc1Cl)Nc1ccc(CN2CCCCC2)cc1,-10%
Cc1noc(C)c1S(=O)(=O)N1CCCC(C(=O)N2CCc3ccccc3C2)C1 (centres undefined),-17%
C/C(=N\NC(=O)c1ccc(N(C)C)cc1)c1ccc(C)cc1C,-18%
COc1cccc(C(C)NC(=O)c2c(F)cccc2Cl)c1 (centres undefined),-8%
C[N+]12CCCC[C@@H]1CCC(=C(c1cccs1)c1cccs1)C2 (some centres undefined),-6%
COc1ccc(CN2CCNC(=O)C2CC(=O)NCc2csc(C(C)C)n2)c(OC)c1 (centres undefined),9%
C[C@]12c3[nH]c4ccc(Cl)cc4c3CCN1C(=O)[C@@H](CC(=O)NCc1ccco1)C[C@@H]2C(=O)N1CCOCC1,-20%
O=C(Nc1ccc(F)cc1)c1cccnc1Oc1ccccc1,6%
Cc1ccc(C(=O)OCC(=O)NC2CCCC2)cc1C,0%
Clc1ccc(OCCCCSc2ncccn2)cc1,-14%
O=C1CCN(C(=O)CSc2ccc(Cl)cc2)N1,1%
C=C(Cl)COC(=O)C1C2C=CC(C2)C1C(=O)O (centres undefined),1%
CCCOc1ccc(CNC(=O)c2ccc(C)c(-n3c(C)nc4cccnc43)c2)cc1,13%
Fc1ccc(Nc2cccc3nccnc23)cc1,3%
CC(C)(C)c1ccc(C(=O)Nc2cccc(S(=O)(=O)NC3=NCCC3)c2)cc1,-3%
CCN(CC)CCNc1ncnc2c1cnn2-c1cc(Cl)ccc1C,12%
O=C1N[C@@H](Cc2c[nH]c3ccccc23)COC(=O)[C@@H](Cc2ccc(F)cc2)CC/C=C/C[C@@H]1CC(=O)N(CCO)Cc1ccccc1,-3%
Cc1ccc(NS(=O)(=O)c2cc(C(=O)NCc3ccccn3)ccc2Cl)cc1,-9%
CCc1ccc(S(=O)(=O)Nc2nnc(N)s2)cc1,-12%
O=C(CSCC(=O)Nc1ccc2ccccc2c1)NCc1ccccc1,-7%
CCOC(=O)c1ccc(N2C(=O)c3[nH]nc(-c4ccccc4)c3C2c2ccc(C(C)C)cc2)cc1 (centres undefined),0%
CC(=O)N/N=C\c1cccc(OC/C=C/c2ccccc2)c1,13%
CCc1cccc(C)c1NC(=O)CSc1nnc(Cc2csc(C)n2)o1,-10%
Cc1nnc2c(NC(C)C)nc3ccccc3n12,11%
COc1ccc(OCc2nc3ccc(S(=O)(=O)Nc4ccccc4Cl)cc3[nH]2)cc1,-7%
COc1cccc(CCNC(=O)C2CCC(=O)N(C3CC3)C2)c1OC (centres undefined),1%

# Continued.
SMILES,VDR inh
Cn1nccc1C(=O)Nc1sc2c(c1C(N)=O)CCCC2,0%
COc1ccc(N=C2SCC(=O)N2CCc2ccc(OC)c(OC)c2)cc1,-2%
CCCCS(=O)(=O)N1CCCC(C(=O)N2CCOCC2)C1 (centres undefined),-23%
CC(C)Nc1nc(NC(C)C)nc(NS(=O)(=O)c2ccc(N)cc2)n1,2%
COc1ccccc1N1CCN(/N=C/c2ccc(OC)c(OC)c2OC)CC1,4%
Cc1cc(Br)cc(Cl)c1OCC(=O)NC(=O)NCc1ccccc1,-17%
CCN(CC(=O)NCc1cccs1)c1ccc(S(=O)(=O)N2CCN(C)CC2)cn1,-7%
O=C(C1CCCO1)N1CCN(C(=S)Nc2ccccc2F)CC1 (centres undefined),-6%
COc1ccc(CCNC(c2ccc(F)cc2)c2nnc(-c3ccccc3Cl)o2)cc1OC (centres undefined),5%
COc1ccc(C(=O)NC(C)c2nnc(SCC(=O)NC3CCCC3)n2C)cc1 (centres undefined),-2%

# Given with tabs: part of the list above.
Molecule	VDR inh
COc1ccc(N=C2SCC(=O)N2CCc2ccc(OC)c(OC)c2)cc1	-2%
CCCCS(=O)(=O)N1CCCC(C(=O)N2CCOCC2)C1 (centres undefined)	-23%
CC(C)Nc1nc(NC(C)C)nc(NS(=O)(=O)c2ccc(N)cc2)n1	2%

# Next section:
SMILES,VDR inh
CC(C)(C)NCC(O)COc1ccc(NC(=O)NC2CCCCC2)cc1 (centres undefined),1%
CCN(CC)C(=O)c1c(-c2ccccc2)c(-c2ccccc2)nn(C)c1=O,-14%
NS(=O)(=O)c1ccc(CCNC(=O)c2cc(=O)[nH]c3ccccc23)cc1,-8%
COCCn1c(=O)c(-c2cc(F)cc(F)c2)nc2cnc(OCc3ccccc3)nc21,-6%
COc1c(OC2OC(C(=O)O)C(O)C(O)C2O)cc(O)c2c(=O)cc(-c3ccccc3)oc12 (centres undefined),-5%
O=C(O)c1ccccc1N/C=C\[N+](=O)[O-],16%
CN(C)c1ccnc(SCc2ccccc2Cl)c1C#N,0%
O=C(NC(=S)NCc1ccc2c(c1)OCO2)c1ccccc1,1%
O=C1CC(c2ccccc2)CC(O)=C1C=NCc1ccccc1Cl (centres undefined),0%
CCc1ccccc1NC(=O)C1CCCN(c2cnccn2)C1 (centres undefined),12%

# By substructure, those above with a cyano group (two)
SMILES,VDR inh
COC(OC)c1ccc(C#N)c(SCc2ccccc2)n1,-16%
CN(C)c1ccnc(SCc2ccccc2Cl)c1C#N,0%

# The list continues:
SMILES,VDR inh
CCCN(C(=O)COc1ccc(Cl)cc1Cl)c1c(N)n(Cc2ccccc2)c(=O)[nH]c1=O,-13%
COc1ccc(-c2noc(CCC(=O)N3CCN(c4ccc(Br)cc4)CC3)n2)cc1,3%
Cc1oc(-c2ccccc2F)nc1CS(=O)CC(=O)NCc1cccs1 (centres undefined),-15%
NC(=O)CS(=O)(=O)c1nc2ccccc2n1Cc1ccccn1,-12%
CCOC(=O)Nc1ccc2c(COC(=O)CNS(=O)(=O)c3cccc(Br)c3)cc(=O)oc2c1,-11%
Cc1cccc(SCC(=O)Nc2ccc3c(c2)OCCO3)c1,13%
NC(=O)CC(NC(=O)Cc1cccc2ccccc12)c1ccc(N2CCC(N3CCCC3)CC2)c([N+](=O)[O-])c1 (centres undefined),4%
Cc1ccc(Cn2c(N3CCCCCC3)nc3c2c(=O)[nH]c(=O)n3C)cc1,-2%
CN(Cc1ccccc1)C(=O)c1cccc(NC(=O)Cc2cccc(NC(=O)C3CCN(C(=O)C4CCC4)CC3)c2)c1,-3%
COc1ccc(C(C)(C)C)cc1NC(=O)CCNC(=O)c1ccco1,-10%
Cc1cc(Cl)ccc1NNC(=O)c1cccs1,?
Cc1nc2ccc3nc(NC(=O)c4ccc5c(c4)OCCO5)sc3c2s1,-5%&2%
CC1CCCCC1NC(=O)/C(C#N)=C/c1ccc2c(c1)OCCO2 (centres undefined),-19%
[O-]/C(=C(\C(=S)Nc1cccc2ccccc12)[n+]1ccccc1)c1ccc(Cl)s1,-28%
CC(C)Oc1ccc(N2CC(C(=O)Nc3ccccc3C(=O)NC3CC3)CC2=O)cc1 (centres undefined),10%
O=C(COc1ccccc1C(=O)NCc1ccncc1)Nc1ccc(Br)cc1,-16%
CCOC(=O)C1(CCCc2ccccc2)CCN(C(=O)CCOC)CC1,-4%
CN(C)c1ccc(NC(=S)NC23CC4CC(CC(C4)C2)C3)cc1,-1%
O=C(c1ccc(Cl)cc1)c1cn(Cc2ccccc2)c2cc3c(cc2c1=O)OCCO3,2%
O=C1COc2ccc(S(=O)(=O)NCc3ccccc3)cc2N1,-2%
CCC1(CC)NC(=O)N(CC(=O)OCc2nc3cc(C(=O)OC)ccc3c(=O)[nH]2)C1=O,-12%
COc1ccc2c(c1OC)C(=O)O[C@@H]2[C@H]1c2c(cc3c(c2OC)OCO3)CCN1C,7%&15%&9%&-5%
COc1ccc(-c2ccc3c(N)c(C(=O)Nc4cc(F)ccc4C)sc3n2)cc1,2%
CC(=O)Oc1ccccc1C(=O)NC(C)CCc1ccccc1 (centres undefined),0%
CCOc1cccc(CNCc2cccnc2)c1OCc1ccccc1,9%
O=C1CCCC(O)=C1N=Nc1ccc(Cl)c(Cl)c1,-9%
O=C(CC1C(=O)NCCN1Cc1cccc(F)c1)NCCCCCN1CCOCC1 (centres undefined),-20%
COc1cc(C2Nc3ccccc3C(=O)N2Cc2ccco2)ccc1O (centres undefined),-12%
Cc1cc2occ(CC(=O)N(C)CC(=O)Nc3ccccc3C(F)(F)F)c2cc1C,18%
Cc1onc(-c2c(F)cccc2Cl)c1C(=O)NCc1cccs1,7%
Cc1ccc(S(=O)(=O)N2CC(=O)Nc3ccccc32)c(C)c1NS(C)(=O)=O,16%
CC(C)c1ccc(/C=C/C(=O)NC(=S)Nc2ccc(CN3CCOCC3)cc2)cc1,-16%
Cc1cc(C)c(NC(=O)C2CCCO2)c(C)c1NC(=O)C1CCCO1 (centres undefined),7%
COc1ccccc1-n1c(SCC(=O)O)nc2sc3c(c2c1=O)CCC3,-9%
CCCc1nc(NCCCOCC)c2nnn(Cc3ccccc3)c2n1,-7%
CC(C(=O)N1CCCCC1)N(C)CC(=O)Nc1ccc(Cl)cc1 (centres undefined),?
Cc1ccc(C(=O)NN=Cc2ccc3c(c2)OCO3)cc1,15%
O=S(=O)(NCCc1ccccc1)c1ccccc1Br,-4%
Cc1cc(C)c(C(=O)CN2C(=O)NC3(CCCCC3)C2=O)cc1C,2%
Cc1ccc(CNC(=O)CN2C(=O)COc3ccc(S(=O)(=O)N4CCC(C)CC4)cc32)cc1,2%
COc1ccccc1N1CCN(CC(O)COc2ccc(S(=O)(=O)N3CCOCC3)cc2)CC1 (centres undefined),6%
COC(=O)c1cc2n(n1)CCN(Cc1cccc(OC)c1)C2=O,5%
COc1cccc(C2C(C(=O)NCc3ccccc3)=C(C)Nc3ncnn32)c1 (centres undefined),3%
Cc1oc(-c2ccccc2F)nc1CS(=O)(=O)CC(=O)NCCCc1ccccc1,19%

# As entered above.
# VDR inh, COc1c(OC2OC(C(=O)O)C(O)C(O)C2O)cc(O)c2c(=O)cc(-c3ccccc3)oc12 (centres undefined) reads -5%
# VDR inh, NS(=O)(=O)c1ccc(CCNC(=O)c2cc(=O)[nH]c3ccccc23)cc1 reads -8%
